Vaccinia inh – blocks a specific stage of Vaccinia orthopoxvirus infection | Vaccinia-infected cells, mCherry/Venus stage reporter fluorescence; hits give low values; some inactives read as strong as hits | AID 1053133 | actives 0.01% (n = 89,000) | activity change (mCherry), % (concentration not given with the values);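 active means mCherry past -33% and 40 or more points under the early reporter, replicates agreeing; inconclusive means past -33% without that gap or agreement; tested in A549 cells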;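 further: scaled between vehicle wells and reference inhibitor wells; 23 nL library stock went into each well; one replicate is shown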
Vaccinia inh Venus – second read-out of Vaccinia inh, no call of its own (marks repeat the call); activity change (Venus), %; measured here: Venus reporter, other viral stage;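 negative = less Venus signal; first of two replicates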
Active calls of the source: *; ? = inconclusive; . = not tested or not shown. Some of the compounds tested. The share of hits here may be higher or lower than overall.

SMILES	Vaccinia inh	Vaccinia inh Venus
CO[C@H]1CN(C)C(=O)c2cc(NC(=O)C3CC3)ccc2OC[C@H](C)NC[C@@H]1C	15	5
C[C@H](CO)N1C[C@H](C)[C@@H](CN(C)Cc2ccc(C(F)(F)F)cc2)OCCCC[C@H](C)Oc2ccc(NC(=O)c3ccccc3)cc2C1=O	-29	-11
O=C1O[C@H](c2ccccc2)[C@H](c2ccccc2)N2[C@H]1[C@@H](C(=O)O)[C@]1(C(=O)Nc3ccccc31)[C@H]2c1ccc(O)cc1	3	-8
O=C(C[C@@H]1CC[C@H](NC(=O)C2CC2)[C@@H](CO)O1)NCCCN1CCOCC1	9	7
O=C(c1ccccn1)N1C[C@H]2[C@@H](c3ccccc31)[C@H](CO)N2C(=O)C1CCCC1	15	7
O=C(Cc1ccncc1)Nc1ccc2c(c1)[C@@H]1C[C@@H](CC(=O)NC3CCCCC3)O[C@H](CO)[C@@H]1O2	3	-1
Cc1cc(C(=O)Nc2cccc3c2O[C@@H](CN(C)C(=O)Nc2ccc(F)cc2)[C@H](C)CN([C@H](C)CO)C3=O)n(C)n1	10	4
CC(=O)N1CC[C@@H]2[C@@H](CO)N(C)c3ccc(-c4cccc(F)c4)cc3[C@@H]21	-1	-10
O=C(C[C@@H]1CC[C@H]2[C@@H](COC[C@@H](O)CN2C(=O)c2ccccc2)O1)NC1Cc2ccccc2C1	15	3
N#C[C@H]1[C@H](c2ccc(-c3ccc(F)cc3)cc2)[C@@H](CO)N1c1nc(-c2ccccc2)cs1	-4	-3
C[C@H]1CN([C@@H](C)CO)C(=O)c2cccc(NC(=O)NC3CCCCC3)c2O[C@H]1CN(C)C(=O)Nc1ccc(F)cc1	-25	-16
COc1ccc(CN(C)C[C@H]2Oc3ccc(NC(=O)Nc4cccc5ccccc45)cc3C(=O)N([C@H](C)CO)C[C@@H]2C)cc1	8	9
C[C@@H]1CN([C@H](C)CO)C(=O)c2cccc(NC(=O)C3CCOCC3)c2O[C@@H]1CN(C)S(C)(=O)=O	13	14
O=C(N[C@@H]1CC[C@@H](CCNC(=O)C2CCCCC2)O[C@@H]1CO)c1ccncc1	-1	-1
C[C@@H](NC(=O)C[C@@H]1C=C[C@H](NC(=O)C2CC2)[C@H](CO)O1)c1ccccc1	5	3
CO[C@@H]1CN(C)C(=O)c2ccc(NC(=O)Nc3ccccc3)cc2OC[C@@H](C)NC[C@@H]1C	2	3
Cc1ccccc1S(=O)(=O)N1CC(=O)N2[C@H](C1)[C@@H](c1ccc(C#CCC3CCCC3)cc1)[C@@H]2CO	-33	-28
CNC[C@H]1Oc2c(NC(=O)Nc3ccc4c(c3)OCO4)cccc2C(=O)N([C@@H](C)CO)C[C@H]1C	0	11
Cc1ccccc1S(=O)(=O)NCC[C@@H]1CC[C@@H](NC(=O)Nc2cccc(F)c2)[C@H](CO)O1	-28	-21
COc1ccc2c3c(n(C)c2c1)[C@@H](CO)N(C(=O)C1CCOCC1)CC31CCN(C(=O)C2CCOCC2)CC1	8	2
C[C@H]1CN([C@@H](C)CO)C(=O)c2cccc(NC(=O)Nc3ccccc3)c2O[C@@H]1CN(C)Cc1ccc(Cl)c(Cl)c1	-19	-9
C[C@@H]1CN([C@@H](C)CO)C(=O)c2cccc(NC(=O)C3CCOCC3)c2O[C@@H]1CN(C)S(=O)(=O)c1cccs1	5	0
Cc1ccccc1S(=O)(=O)N[C@@H]1CC[C@H](CCn2cc(-c3ccc(F)cc3)nn2)O[C@H]1CO	-26	-21
CNC(=O)C[C@H]1CC[C@H]2[C@H](COc3ccc(NC(=O)c4ccc(F)c(F)c4)cc3C(=O)N2C)O1	6	4
C/C=C/c1ccc([C@@H]2[C@H](CO)N(C(=O)CC3CC3)C23CN(S(C)(=O)=O)C3)cc1	6	12
CC(C)NC(=O)N1[C@H](C(=O)N2CCOCC2)[C@@H](CO)[C@@H]2Cn3c(ccc(-c4ccc(F)cc4)c3=O)[C@@H]21	14	3
O=C(C[C@@H]1CC[C@@H](NC(=O)C2CCC2)[C@H](CO)O1)NCc1ccncc1	4	6
C[C@H](CO)N1C[C@H](C)[C@@H](CN(C)C(=O)CN(C)C)Oc2ncc(C#CCC3CCCC3)cc2C1=O	-6	-9
CC=Cc1ccc2n(c1=O)C[C@@H]1[C@@H](CO)[C@H](C(=O)N[C@@H](C)c3ccccc3)N(C)[C@H]21 (mixture of isomers)	1	7
COc1ccc2c3c([nH]c2c1)[C@@H](CO)N(C(=O)NC(C)C)CC31CCN(C(=O)C2CCCC2)CC1	10	-3

19 of the compounds above, with values under each structure.
Every second line gives: Vaccinia inh | Vaccinia inh Venus
Cc1cc(C(=O)Nc2cccc3c2O[C@@H](CN(C)C(=O)Nc2ccc(F)cc2)[C@H](C)CN([C@H](C)CO)C3=O)n(C)n1
→ 10 | 4
CC(=O)N1CC[C@@H]2[C@@H](CO)N(C)c3ccc(-c4cccc(F)c4)cc3[C@@H]21
→ -1 | -10
O=C(C[C@@H]1CC[C@H]2[C@@H](COC[C@@H](O)CN2C(=O)c2ccccc2)O1)NC1Cc2ccccc2C1
→ 15 | 3
N#C[C@H]1[C@H](c2ccc(-c3ccc(F)cc3)cc2)[C@@H](CO)N1c1nc(-c2ccccc2)cs1
→ -4 | -3
C[C@H]1CN([C@@H](C)CO)C(=O)c2cccc(NC(=O)NC3CCCCC3)c2O[C@H]1CN(C)C(=O)Nc1ccc(F)cc1
→ -25 | -16
COc1ccc(CN(C)C[C@H]2Oc3ccc(NC(=O)Nc4cccc5ccccc45)cc3C(=O)N([C@H](C)CO)C[C@@H]2C)cc1
→ 8 | 9
C[C@@H]1CN([C@H](C)CO)C(=O)c2cccc(NC(=O)C3CCOCC3)c2O[C@@H]1CN(C)S(C)(=O)=O
→ 13 | 14
O=C(N[C@@H]1CC[C@@H](CCNC(=O)C2CCCCC2)O[C@@H]1CO)c1ccncc1
→ -1 | -1
C[C@@H](NC(=O)C[C@@H]1C=C[C@H](NC(=O)C2CC2)[C@H](CO)O1)c1ccccc1
→ 5 | 3
CO[C@@H]1CN(C)C(=O)c2ccc(NC(=O)Nc3ccccc3)cc2OC[C@@H](C)NC[C@@H]1C
→ 2 | 3
Cc1ccccc1S(=O)(=O)N1CC(=O)N2[C@H](C1)[C@@H](c1ccc(C#CCC3CCCC3)cc1)[C@@H]2CO
→ -33 | -28
CNC[C@H]1Oc2c(NC(=O)Nc3ccc4c(c3)OCO4)cccc2C(=O)N([C@@H](C)CO)C[C@H]1C
→ 0 | 11
Cc1ccccc1S(=O)(=O)NCC[C@@H]1CC[C@@H](NC(=O)Nc2cccc(F)c2)[C@H](CO)O1
→ -28 | -21
COc1ccc2c3c(n(C)c2c1)[C@@H](CO)N(C(=O)C1CCOCC1)CC31CCN(C(=O)C2CCOCC2)CC1
→ 8 | 2
C[C@H]1CN([C@@H](C)CO)C(=O)c2cccc(NC(=O)Nc3ccccc3)c2O[C@@H]1CN(C)Cc1ccc(Cl)c(Cl)c1
→ -19 | -9
C[C@@H]1CN([C@@H](C)CO)C(=O)c2cccc(NC(=O)C3CCOCC3)c2O[C@@H]1CN(C)S(=O)(=O)c1cccs1
→ 5 | 0
Cc1ccccc1S(=O)(=O)N[C@@H]1CC[C@H](CCn2cc(-c3ccc(F)cc3)nn2)O[C@H]1CO
→ -26 | -21
CNC(=O)C[C@H]1CC[C@H]2[C@H](COc3ccc(NC(=O)c4ccc(F)c(F)c4)cc3C(=O)N2C)O1
→ 6 | 4
C/C=C/c1ccc([C@@H]2[C@H](CO)N(C(=O)CC3CC3)C23CN(S(C)(=O)=O)C3)cc1
→ 6 | 12

(next part)
SMILES	Vaccinia inh	Vaccinia inh Venus
C[C@@H]1CN([C@@H](C)CO)C(=O)Cc2cc(NC(=O)Cc3cn(C)c4ccccc34)ccc2O[C@H]1CN(C)C(=O)Nc1ccc(F)cc1	-3	2
COCC(=O)Nc1ccc2c(c1)OC[C@H](C)N(C(=O)COC)C[C@H](C)[C@H](OC)CN(C)C2=O	9	4
O=C(C[C@H]1CC[C@@H]2[C@H](COC[C@H](O)CN2C(=O)c2cccnc2)O1)NCc1ccccc1	7	7
CO[C@@H]1CN(C)C(=O)c2ccc(NC(C)=O)cc2OC[C@H](C)N(C(=O)Cc2cccnc2)C[C@H]1C	8	2
COC(=O)C[C@@H]1CC[C@@H]2[C@@H](COc3ccc(NC(=O)C4CCOCC4)cc3C(=O)N2C)O1	6	9
O=C(C[C@@H]1C[C@@H]2c3cc(NC(=O)Nc4ccccc4F)ccc3O[C@@H]2[C@@H](CO)O1)NCc1cc(F)ccc1F	-8	-10
CO[C@@H]1CN(C)C(=O)c2cc(NS(C)(=O)=O)ccc2OC[C@H](C)N(CC2CCOCC2)C[C@@H]1C	11	2
COc1ccc(CN(C)C[C@H]2Oc3ccc(NC(=O)NC4CCCCC4)cc3C(=O)N([C@H](C)CO)C[C@H]2C)cc1	-2	-3
Cc1ccc(S(=O)(=O)Nc2ccc3c(c2)CC(=O)N([C@H](C)CO)C[C@@H](C)[C@@H](CN(C)S(=O)(=O)c2cn(C)cn2)O3)cc1	21	23
O=C(NCC1CCCCC1)[C@H]1N[C@H]2c3ccc(C4=CCCC4)c(=O)n3C[C@H]2[C@@H]1CO	5	15
COc1ccccc1CN1C[C@@H]2N[C@H](C1)C2c1ccc(-c2ccccc2OC)cc1 (stereo partly drawn)	?	.
C[C@@H]1CN([C@@H](C)CO)C(=O)c2cccc(NS(=O)(=O)c3ccc(Cl)cc3)c2O[C@@H]1CN(C)Cc1ccc(C(=O)Nc2ccccc2N)cc1	?	.
CNC(=O)C[C@H]1CC[C@@H]2[C@@H](COc3ccc(NC(=O)c4cccc(OC)c4)cc3C(=O)N2C)O1	-2	0
CO[C@@H](C(=O)N(C)C[C@H]1OCc2ccccc2-c2c(n(C)c3ccccc23)C(=O)N([C@H](C)CO)C[C@@H]1C)c1ccccc1	-21	-20
CCC(=O)N1[C@@H]2c3ccc(C4=CCCC4)c(=O)n3C[C@@H]2[C@@H](CO)[C@@H]1C(=O)NCc1ccccc1	5	4
O=C1O[C@H](c2ccccc2)[C@H](c2ccccc2)N2[C@H]1[C@@H](C(=O)N1CCCCCCC1)[C@]1(C(=O)Nc3ccc(C#CC4=CCCCC4)cc31)[C@H]2c1ccccc1OCCO	-19	-8
Cc1noc(C)c1S(=O)(=O)N(C)C[C@@H]1OCCCC[C@H](C)Oc2ccc(NS(C)(=O)=O)cc2C(=O)N([C@@H](C)CO)C[C@H]1C	20	-3
CN1[C@@H]2c3ccc(/C=C/c4ccccc4)c(=O)n3C[C@@H]2[C@@H](CO)[C@@H]1C(=O)Nc1nccs1	?	.
CCC(=O)Nc1ccc2c(c1)OC[C@@H](C)N(C(=O)C1CC1)C[C@@H](C)[C@@H](OC)CN(C)C2=O	-1	-1
Cn1cnc(S(=O)(=O)N2CCCCN3[C@@H](CO)[C@@H](c4ccc(C#CC5CC5)cc4)[C@@H]3C2)c1	-12	-19
